AID504770 = E. coli YBA685 growth inhibition, screen for V. cholerae RctB inhibitors; E. coli YBA685 rctB-dependent plasmid, OD600 growth, 3 h; stronger effect = lower value; z-score (test concentration not listed); hit rate 0.27% among 130,000;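 active = z-score under -2 on both plates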;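 note: wells of about 30 µL received 100 nL stock; score is relative to mean and SD of the test wells; the first replicate is given; strong numbers were not always called active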
CapD inh = blocks the Bacillus anthracis CapD enzyme; purified CapD enzyme, fluorescence intensity read-out; stronger effect = lower value; some hits fall short of the stated cut; z-score (concentration not given with the values); hit rate 0.23% among 140,000;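 active = z-score under -4 in either of two replicates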;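 note: stock transfer was 100 nL into about 40 µL; score is relative to mean and spread of the plate; one replicate is shown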
Numbers without * were called inactive; . = not tested or not shown.

| compound | AID504770 | CapD inh |
| --- | --- | --- |
| Cc1c(-c2nc(-c3ccc(C(C)(C)C)cc3)no2)n(C)oc1=O | 0.5 | 2.5 |
| COc1ccc(NC(=O)N2CCCC2C(=O)Nc2ccccc2)cc1 (stereo not drawn) | -0.35 | . |
| O=[N+]([O-])c1cc(C(F)(F)F)cc([N+](=O)[O-])c1O/N=C1\CSCc2ccccc21 | . | -0.15 |
| Cc1cc(C)cc(NC(=O)C2CC2C)c1 (stereo not drawn) | -1.2 | . |
| Cc1nc2cc(-c3ccccc3)nn2c(C)c1CCC(=O)N1CCCC1 | 0.55 | -1.6 |
| COc1cccc(-n2c(=S)sc3c2nc(SCC(=O)NCc2ccco2)n2c4ccccc4nc32)c1 | . | -0.21 |
| Cc1ccc(C)c(N2CCN(CCCNC(=O)c3nnc(Cc4c(F)cccc4Cl)o3)CC2)c1 | -0.1 | -0.22 |
| CC(NCCN1C(=O)S/C(=C\c2ccc(C)cc2)C1=O)=C(C#N)C#N | -2.1 | . |
| CC[n+]1ccc(/C=C/c2ccc(OC)c(OC)c2OC)cc1 | 0.05 | -3.2 |
| O=C(CN1C(=O)c2ccccc2C1=O)ON1C(=O)CCC1=O | -0.45 | . |
| O=C(Nc1ccccc1)/C(=C/c1ccccc1)NC(=O)c1ccccc1 | -0.05 | 0.4 |
| CN(Cc1ccc(Cl)c(Cl)c1)CN1C(=O)NC2(CCCC2)C1=O | -0.25 | . |
| O=C1N(Cc2ccccc2)c2ccccc2C12Oc1ccccc1C1CC(c3ccco3)=NN12 (stereo not drawn) | . | -0.22 |
| CCOc1ccc(-c2cc(CCCC(=O)Nc3cc(OC)ccc3OC)no2)cc1 | 0.8 | -0.18 |
| COc1ccc(C(C2=C(O)CC(C)(C)CC2=O)C2C(=O)CC(C)(C)CC2=O)cc1O (stereo not drawn) | . | 0.065 |
| CCOc1ccc(C=Nc2ccc(C(=O)O)cc2)c(O)c1 | -0.9 | -0.52 |
| COc1ccccc1C(=O)Nc1nn2c(-c3ccccc3C)nnc2s1 | -0.4 | 0.82 |
| N#CCCn1c2c(c3ccccc31)CCc1ccccc1-2 | 1.7 | 74 |
| N#Cc1cccc(CSc2nnc(SCc3cccc(C#N)c3)s2)c1 | 0.75 | -1.4 |
| O=S(=O)(c1cccc(CSc2nnc(-c3cccs3)n2-c2ccccc2)c1)N1CCOCC1 | 1.7 | . |
| C/C(=C\c1ccc(Cl)cc1Cl)[N+](=O)[O-] | . | 0.34 |
| Brc1ccc(C=Nc2cccc3ccccc23)s1 | 0.7 | 14 |
| CS(=O)(=O)CCC(C(=O)Nc1ccccc1)N1Cc2ccccc2C1=O (stereo not drawn) | 0.5 | -1.1 |
| O=C(Nc1nnc(-c2ccccc2)s1)c1ccc(Br)c(S(=O)(=O)N2CCOCC2)c1 | . | 0.98 |
| O=C(c1csc(-c2ccccc2)n1)N1CCN(S(=O)(=O)c2ccc3c(c2)OCCCO3)CC1 | -0.5 | . |

Additional entries
| compound | AID504770 | CapD inh |
| --- | --- | --- |
| Cn1ccnc1C1(O)CCNCC1 | -0.85 | . |
| CC(C)c1ccc(NC(=S)Sc2ccc(F)cc2F)cc1 | -0.85 | 0.78 |
| COc1ccc(/C=C/C(=O)N=c2sccn2C)c(OC)c1 | 0.3 | . |
| CC1(C)CC(=O)C2=C(C1)C(c1cccnc1)Nc1ccc3ccccc3c12 (stereo not drawn) | 0.2 | 0.48 |
| CCCC(C)C(=O)Nc1ccc(-c2nc3ccccc3o2)cc1 (stereo not drawn) | 0.1 | 75 |
| COc1ccc(Cc2nn3c(-c4cccs4)nnc3s2)cc1OC | -0.55 | . |
| CCOC(=O)N1CCC(C(N)=O)CC1 | -0.7 | -0.62 |
| Cc1oc2c(c1C(=O)N1CCc3ccccc3C1)C(=O)c1ccccc1C2=O | 0.65 | -1.5 |
| COC(=O)CCCCC1SCC(NC(=O)c2ccccc2)C1O (stereo not drawn) | . | -0.3 |
| CCOC(=O)C1CCN(C(=O)/C=C/c2ccc(F)cc2)CC1 | 0.9 | 0.64 |
| Cc1c(CC(=O)N2CCCC2)c(=O)oc2cc(O)ccc12 | 0.2 | 104 |
| CC(C)N1CC2(c3ccccc3)CN(C(C)C)CC(c3ccccc3)(C1)C2=O | -0.8 | -0.34 |
| C=CCOc1ccc(C2C(C(=O)OCC)=C(C)N=c3s/c(=C\c4ccc(C(=O)O)cc4)c(=O)n32)cc1 (stereo not drawn) | . | 0 |
| CCc1cccc(-n2c(N3CCOCC3)n[nH]c2=S)c1 | 0.8 | . |
| Nc1nc(Br)c2c(F)cccc2c1-c1ccc(Cl)cc1 | . | 0.015 |
| O=C1NC(c2ccccc2)(C(F)(F)F)SC2=NCCCN12 (stereo not drawn) | -0.05 | 3.3 |
| COc1ccccc1C(=O)COC(=O)Cn1nnc2ccccc21 | -0.7 | . |
| Cc1ccc(-c2c(C(=O)Nc3cccc(-c4nc5ncccc5o4)c3C)oc(=O)c3ccccc23)cc1 | . | -0.3 |
| CCOc1cc(-c2nc3sc4c(c3c(=O)[nH]2)CCCC4)cc(Br)c1OCCOc1ccc(C)cc1 | . | 0.51 |
| Cn1nc(-c2ccccc2)ccc1=O | -0.35 | 3.3 |
| Cc1csc(NC(=O)C(CC(C)C)NS(=O)(=O)c2ccc3c(c2)oc(=O)n3C)n1 (stereo not drawn) | 0.9 | -0.89 |
| O=S(=O)(c1cccc(C(F)(F)F)c1)N1CCCC(n2nnc3ccccc32)C1 (stereo not drawn) | 0.65 | -0.05 |
| O=C(COc1nc2ccccc2s1)N1c2ccccc2CCc2ccccc21 | . | 0.53 |
| O=C(CSc1nnc(-c2ccc(Cl)cc2)o1)OCC(=O)c1ccccc1 | 0.65 | . |
| COc1ccccc1OCCn1cc(/C=C2/SC(=S)NC2=O)c2ccccc21 | 0.5 | -0.55 |

Going on with the list.
| compound | AID504770 | CapD inh |
| --- | --- | --- |
| O=C(CCCn1c(=S)[nH]c2c(sc3ccccc32)c1=O)NC1CCCCCC1 | -0.45 | -0.03 |
| CC1CCCC(C)N1/N=C/c1ccc(C#N)cc1 (stereo not drawn) | -0.15 | . |
| O=C(/C=C/c1ccco1)Oc1cccc(Oc2ccccc2)c1 | 0.6 | -0.85 |
| CC(C)CNC(=O)c1ccc(COc2ccc(Cl)cc2Cl)o1 | -0.75 | 0.33 |
| CC(C)c1nc2ccc(Cl)cc2c2c1C(=O)N(CCCN1CCCCC1C)C2=O (stereo not drawn) | . | 0.57 |
| Cc1noc(C)c1-c1nc(CS(=O)(=O)Cc2ccc(Cl)cc2)no1 | -0.4 | -0.59 |
| O=C(Cn1cc(S(=O)(=O)N2CCCC2)c(S(=O)(=O)N2CCCC2)c1)N1CCc2ccccc21 | 1.2 | -1.8 |
| O=C(c1cc2ccccc2oc1=O)N1CCSC1c1ccc2c3c(cccc13)CC2 (stereo not drawn) | . | -0.095 |
| CN(C)C(=S)Nc1ccc(S(=O)(=O)N2CCCCC2)cc1 | -0.7 | -0.07 |
| CSc1nc(C)c2cc(C)oc2n1 | -0.95 | 0.35 |
| CCn1c(SC(C)C(=O)NC(C)c2ccc(F)cc2)n[nH]c1=O (stereo not drawn) | 0.15 | . |
| NS(=O)(=O)c1ccccc1 | 0.35 | . |
| COC(=O)CSc1sc(C#N)c2c1C(=O)CC(C)(C)C2 | -0.2 | -0.9 |
| CC(CN)c1ccccc1 (stereo not drawn) | 0.25 | . |
| CC(NC(=O)c1ccc2c(c1)N(C)CCS2)c1ccccc1 (stereo not drawn) | 0.35 | 26 |
| CS(=O)CCNC(=O)Nc1ccc(Cl)c(Cl)c1 (stereo not drawn) | 0.05 | -3.3 |
| O=C(Cn1cnnn1)Nc1ccccc1Cc1ccccc1 | -0.95 | . |
| CC(C)(C)C(=O)/C(C#N)=C/c1ccc(C#N)cc1 | -0.3 | . |
| CCCN(C(=O)CSc1ccccc1C(=O)O)C1CCS(=O)(=O)C1 (stereo not drawn) | -0.1 | . |
| Cc1cc(N2CCCC2)nc(-n2nc(C)cc2C)n1 | 0.05 | . |
| C=CCSc1nc(Oc2cccc(C)c2)c2sc3nc(C)cc(C)c3c2n1 | . | 0.23 |
| CN1N=C2/C(=C/c3ccccc3)CN(Cc3ccccc3)CC2C1c1ccccc1 (stereo not drawn) | . | 0.57 |
| O=c1c2c(nc3n1CCC3)sc1c(O)c(Br)ccc12 | 1 | -0.06 |
| O=C(C1CC2C=CC1C2)N1CCN(c2ccccc2)CC1 (stereo not drawn) | 2.2 | . |
| CS(=O)(=O)c1ccc2ccn(O)c2c1 | -1.1 | 0.18 |

Next section
Each structure is followed by: AID504770, CapD inh
- CCn1cc(CN(C)C(=S)Nc2ccc(Br)cc2Cl)c(C)n1
→ -0.35, 0.24
- Cc1nn(-c2ccccc2)c2c1-c1onc(C(=O)NCc3ccco3)c1CC2
→ -0.45, 0.32
- COCc1cc(=O)oc2cc(OC)ccc12
→ 0.2, .
- CC(=O)Nc1c(-c2ccccc2)c2cc(Br)ccc2[nH]c1=O
→ 0.4, 2.2
- COc1ccc(Cl)cc1N1C(=O)C2C(c3ccccc3)OC3(C(=O)c4ccccc4C3=O)C2C1=O (stereo not drawn)
→ ., 0.5
- CCOC(=O)N1CCC(N2C(=O)c3ccc(C(=O)NCCOC)cc3C2=O)CC1
→ 1.5, -0.22
- CSc1ccc(/C=C2\C(=O)N(c3ccc(C)c(C)c3)C(c3cccc([N+](=O)[O-])c3)S2(=O)=O)cc1 (stereo not drawn)
→ ., -0.15
- CCOC(=O)C1=C(C)OC(N)=C(C#N)C1c1ccc(F)c(F)c1 (stereo not drawn)
→ ., 0.61
- CCOc1ccccc1NC(=O)CCSc1nc2n[nH]c(C)c2c(=N)n1-c1ccccc1Cl
→ ., 0.64
- CC1=NNC(c2ccc(O)cc2)C1 (stereo not drawn)
→ 2.3, -1.4
- O=C(CSc1nc2cc(C(=O)NCCCN3CCOCC3)ccc2c(=O)n1CC1CCCO1)NCCc1ccccc1 (stereo not drawn)
→ ., -0.27
- CC(NC(=O)Cc1ccc(F)cc1)C(c1cccs1)N1CCN(C)CC1 (stereo not drawn)
→ 0.55, -0.66
- Nc1nc(=S)nc(-c2ccncc2)[nH]1
→ -2.1, .
- CCCc1nnc(NC2CCCC2)s1
→ -0.35, 0.29
- O=C(OCc1ccccc1Cc1ccccc1)N1CCN(Cc2cccnc2)CC1
→ ., 0.35

The results go on.
Each structure is followed by: AID504770, CapD inh
- Cc1ccc(SCC(=O)Nc2ccc(N3CCN(C)CC3)c(F)c2)c(C)c1
→ ., 0.57
- CC(C)(C)NC(=O)CN1C2CCC1CC(O)(c1ccc(F)cc1)C2 (stereo not drawn)
→ 1.4, .
- N#Cc1c(N)n[nH]c1CCCCCN=Cc1cc(Br)ccc1O
→ 0.75, .
- COC(=O)NC(=C(Cl)Cl)c1ccc(C)c(F)c1
→ -0.75, 0.29
- Cc1cc(C(=O)N2CC(C)CC(C)C2)n[nH]1 (stereo not drawn)
→ -0.25, 0.34
- COc1cccc(-c2nc(-c3ccccc3)[nH]c2-c2cccc(OC)c2)c1
→ 0.9, -0.58
- CSC1=N/C(=C\N(C)C)C(=O)N1CCOc1ccc(Cl)cc1
→ ., -2.1
- CC(CNC(=O)C1CCCN(C(=O)N2CCOc3ccccc32)C1)c1ccccc1 (stereo not drawn)
→ 0.35, -0.43
- Cc1ccc(NC(=O)c2ccccc2)s1
→ -1.4, -2.6
- CC(=O)C1=NN(c2cccc(Cl)c2)C2(S1)c1ccccc1C(c1ccc(C)cc1)=NN2c1ccccc1 (stereo not drawn)
→ ., -1.3
- Clc1cccc(Cl)c1COc1ccccn1
→ -0.45, .
- N#CC1(C#N)C(c2ccccc2)C(C(=O)c2ccccc2)N2c3ccccc3C=CC21 (stereo not drawn)
→ ., 0.55
- Cc1cc(-c2csc(NCc3ccccc3)n2)c(C)n1CC1CCCO1 (stereo not drawn)
→ 0.85, .
- O=C(NC(Cc1c[nH]c2ccccc12)C(=O)Nc1ccc(Br)cc1)Oc1ccccc1 (stereo not drawn)
→ ., -0.57
- CC(C)c1nc2ccc(F)cc2c2c1C(=O)N(Cc1cccnc1)C2=O
→ ., 0.65

Four entries from above, with each value named:
COc1ccc(NC(=O)N2CCCC2C(=O)Nc2ccccc2)cc1 (stereo not drawn)
  AID504770: -0.35
  CapD inh: .
O=[N+]([O-])c1cc(C(F)(F)F)cc([N+](=O)[O-])c1O/N=C1\CSCc2ccccc21
  AID504770: .
  CapD inh: -0.15
Cc1cc(C)cc(NC(=O)C2CC2C)c1 (stereo not drawn)
  AID504770: -1.2
  CapD inh: .
Cc1nc2cc(-c3ccccc3)nn2c(C)c1CCC(=O)N1CCCC1
  AID504770: 0.55
  CapD inh: -1.6

Carrying on.
Each structure is followed by: AID504770, CapD inh
- CC(=O)OCC(=O)Nc1ccccc1C#N
→ 0.9, 0.4
- O=C(/C=C/c1ccc(Br)o1)OCC(=O)N1CCN(S(=O)(=O)c2ccc3ccccc3c2)CC1
→ 0.25, .
- CN(C)c1ccc(C(=O)C(F)(F)F)cc1
→ ., -0.12
- Cc1ccccc1-n1nc(-c2cccnc2)cc1C(=O)NN
→ -0.8, .
- CN1CCN(CC(O)(c2ccc(F)cc2)c2ccc(F)cc2)CC1
→ 0.05, -0.015
- Cc1sc2ncnc(Nc3ccc4c(c3)OCCCO4)c2c1C
→ -1.3, .
- C#CCNC(=O)c1sc2cc(C(F)(F)F)cnc2c1-c1cccs1
→ ., 5.6
- CC1Sc2ccc(C(=O)Oc3ccccc3C#N)cc2NC1=O (stereo not drawn)
→ -0.85, .
- COc1ccc(-c2noc(NCCCN3CCCC3=O)n2)cc1OC
→ -1.1, -0.58
- CCN(CC)CCn1c(NC(C)=O)nc2ccccc21
→ ., 0.37

Entries of single compounds as entered above. Order of values: AID504770	CapD inh
CS(=O)CCNC(=O)Nc1ccc(Cl)c(Cl)c1 (stereo not drawn) in the list: 0.05	-3.3
CSC1=N/C(=C\N(C)C)C(=O)N1CCOc1ccc(Cl)cc1 in the list: .	-2.1
CC1Sc2ccc(C(=O)Oc3ccccc3C#N)cc2NC1=O (stereo not drawn) in the list: -0.85	.
CCCN(C(=O)CSc1ccccc1C(=O)O)C1CCS(=O)(=O)C1 (stereo not drawn) in the list: -0.1	.
